Compound activity as filed in PubChem.
GIV-Gai inh = inhibitors of GIV peptide binding to Galpha-i3, primary screen, biochemical, fluorescence polarization, FITC-GIV GBA peptide, rat Galphai3 | Guanine nucleotide-binding protein G(i) subunit alpha-3 (Rattus norvegicus), P08753 | 90 min; hits give low values; scaled: aluminum fluoride 0%, vehicle 100% | percent of control (FP), % (no concentration beside the values) | 210,000 tested, 0.42% active;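 active = replicate mean at 85% of control or lower, very high polarization wells dropped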;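 also: wells of about 15 µL received 100 nL stock; the first replicate is given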
Target sequence (P08753 whole entry, looked up): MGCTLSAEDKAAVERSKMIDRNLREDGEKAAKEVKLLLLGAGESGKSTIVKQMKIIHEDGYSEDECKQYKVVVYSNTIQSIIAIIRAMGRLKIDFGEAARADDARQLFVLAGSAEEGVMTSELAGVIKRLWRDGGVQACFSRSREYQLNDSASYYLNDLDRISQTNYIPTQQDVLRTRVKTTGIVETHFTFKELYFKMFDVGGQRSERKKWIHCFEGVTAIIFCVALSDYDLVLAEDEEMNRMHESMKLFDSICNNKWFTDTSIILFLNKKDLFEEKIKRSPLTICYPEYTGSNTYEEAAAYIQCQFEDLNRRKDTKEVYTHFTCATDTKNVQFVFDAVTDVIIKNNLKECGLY
Sa growth inh = S. aureus growth inhibition at 42 and 30 °C, primary screen, LtaS inhibitor project, RN4220, two temperatures; relative growth, % (test concentration not listed); 170,000 tested, 0.53% active; OD600, 20 h, 42 °C; hits give low values;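 active = growth at 42 °C up to 50% and 20 or more points under that at 30 °C, or under 10% at both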;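 also: 300 nL library stock went into each well; scaled to the means of positive and negative controls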
HCMV NEC inh = inhibitors of HCMV UL50-UL53 interaction, biochemical, HTRF; HCMV UL50-UL53 nuclear egress complex (human cytomegalovirus); normalized percent inhibition; inhibition, % (concentration not given with the values); 190,000 tested, 0.15% active; AID 1918969, 2023;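 active = both replicates at 50% or more, plus weaker picks with an unusually low signal ratio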;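 also: stock transfer was 100 nL into about 20 µL; 0% = negative control wells and 100% = wells with untagged competitor protein; inactives centre near -12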
Sa growth inh second temp = also measured in Sa growth inh; calls as there; relative growth, %; measured here: growth at 30 °C;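 optical density after 20 h as mean of two plates; 100% = untreated growth and lower means inhibition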
The depositor's hits bear a star; x = not tested or not shown; & = joins results of further samples.

(1) O=C(NC1CCCCC1)c1ccc(CSc2nc3ccncc3n2Cc2ccc(F)cc2)cc1
(2) CCCCOc1ccc(C(=O)NCc2nnnn2-c2ccc(C)c(C)c2)cc1
(3) CCc1noc2ncnc(NC3CC3)c12
(4) NC(=O)Nc1nc2cc(Cl)cc(Cl)c2[nH]c1=O
(5) Cc1cc(C)c(C)c(S(=O)(=O)N2CC(O)CC2C(=O)O)c1C (stereo not given)
(6) COc1ccc(CCNC(=O)c2cccc(-n3cnc4cccnc43)c2C)cc1OC
(7) CC(=O)Nc1cccc(Oc2nnc(-c3ccc(Cl)cc3)c3ccccc23)c1
(8) COc1ccc(/C(C)=N/NC(=O)Cc2c(C)nc(C)[nH]c2=O)cc1

Assay by compound,1,2,3,4,5,6,7,8
GIV-Gai inh,98,101,96,98,x,116,99,114
Sa growth inh,100,86,x,102,68,88,x,97
Sa growth inh second temp,88,79,x,72,91,89,x,94
HCMV NEC inh,-18,x,-11,-58,-27,x,-14,4

(9) CCn1c(SCC(=O)NC(C)(C#N)C(C)C)nnc1-c1ccccc1 (stereo not given)
(10) CC(C)Sc1n[nH]c(=S)n1N
(11) CCCCN(CC)C(=O)c1ccc2c(c1)NC(=O)c1ccccc1S2
(12) CCOc1ccccc1NC(=O)c1ccccc1C
(13) CC(=O)NC1C(Oc2ccccc2)OC(COC(C)=O)C(OC(C)=O)C1OC(C)=O (stereo not given)
(14) CCOC(=O)c1c(C)[nH]c(C)c1C(=O)COC(=O)CSc1nnc(-c2ccco2)n1CC
(15) CCCOC(=O)Nc1nnc(CCC)s1
(16) O=C(NCC1CCN(Cc2cccc(Cl)c2)CC1)Nc1ccc(Cl)cc1

Assay by compound,9,10,11,12,13,14,15,16
GIV-Gai inh,x,x,97,109,x,x,103,104&103
Sa growth inh,108,72,119,98,94,69,106,70
Sa growth inh second temp,103,82,79,104,92,90,109,20
HCMV NEC inh,0,-6,-31,10,-3,-30,2,-16

(17) COc1ccc(C2=NN(C(=O)CCCC(=O)O)C(c3cc(OC)ccc3OC)C2)cc1 (stereo not given)
(18) COc1cccc(CNCC(C)O)c1OC (stereo not given)
(19) CSc1ccc(CCNC(=O)Cn2ccc3cc(S(=O)(=O)N4CCCCCC4)ccc32)cc1
(20) CCCCC(C(=O)O)n1cccc1 (stereo not given)
(21) Cc1nn(C(C)(C)C)c(C)c1C#N
(22) Cc1nc2ccn(Cc3cccnc3)c(=O)c2cc1C(=O)Nc1ccccc1
(23) Cc1ccc(S(=O)(=O)NCCc2c(C)[nH]c3c(Cl)cccc23)c(C)c1C
(24) Cc1cccc(N2CCN(S(=O)(=O)c3ccc4c(c3)CCCN4C(=O)C3CCC3)CC2)c1C

Assay by compound,17,18,19,20,21,22,23,24
GIV-Gai inh,101,x,101,99,103,101,105,106
Sa growth inh,x,106,106,88,106,100,x,111
Sa growth inh second temp,x,93,101,68,84,77,x,96
HCMV NEC inh,-44,-4,x,-19,-15,-26,-6,x

(25) O=C(NCc1cn2ccccc2n1)c1cccc(C(F)(F)F)c1
(26) O=C(/C=C/c1ccccc1)N1CCCC1=O
(27) O=C(NC1CCN(c2nccc(C(F)(F)F)n2)CC1)c1cccs1
(28) CC(C)(C)c1cc(/C=C(\C#N)C(N)=S)cc(C(C)(C)C)c1O
(29) C1=C(C(c2nnnn2C2CCCCC2)N2CCCCC2)COc2ccccc21 (stereo not given)
(30) COc1ccccc1NC(=O)CN1C(=O)C(c2ccc(F)cc2)=NC12CCCCC2
(31) CCCCOc1ccc(NC(=O)CCSc2nccn2C)cc1
(32) Cc1ccc(N2CCn3c2nc2c3c(=O)n(Cc3cccc(Cl)c3)c(=O)n2C)cc1C

Assay by compound,25,26,27,28,29,30,31,32
GIV-Gai inh,104,88,101,179,104,103,104,99
Sa growth inh,100,78,109,x,110,101,94,124
Sa growth inh second temp,77,124,90,x,88,86,92,94
HCMV NEC inh,x,17,x,-7&-28,-17,-10,-5,x

(33) Cn1cc(C(=O)NCc2ccc(F)cc2)c(=O)c2cc(S(=O)(=O)N3CCCCC3)ccc21
(34) CCc1nc2ccc(C(=O)N3CCN(c4ccc(Cl)cc4)CC3)cc2nc1CC
(35) COc1cc(-c2ccc(Cl)cc2)nc(N)n1
(36) C(=N\NC1=Nc2cccc3cccc1c23)/c1ccccn1
(37) Cc1ccc(Cl)cc1N(C)C(=O)c1cc2ccc3cccnc3c2[nH]1
(38) Cc1cccc(C)c1-n1ncc(C(=O)NCCCN2CCC(C)CC2)c1C1CCN(C(=O)OC(C)(C)C)CC1
(39) Nc1c(C(=O)Nc2ccccc2C(F)(F)F)sc2[nH]c(=O)c(C(=O)O)cc12
(40) CC(C)Oc1cc(N)c(Cl)cc1Cl

Assay by compound,33,34,35,36,37,38,39,40
GIV-Gai inh,102,101,98,x,104,104,105,104
Sa growth inh,98,133,88,102,57,85,97,x
Sa growth inh second temp,95,89,83,88,49,85,94,x
HCMV NEC inh,-9,x,-10,-37,x,x,-50,0

(41) Cc1ccc(-c2nc3n(CC(=O)N4CCCCC4C)c4c(c(=O)n3n2)CCC4)cc1 (stereo not given)
(42) O=C(C1CCN(S(=O)(=O)Cc2ccccc2)CC1)N(Cc1ccccc1)Cc1ccccc1
(43) O=c1[nH]nc(SCc2csc(-c3ccccc3)n2)n1Cc1ccccc1
(44) CCCCn1c(=O)c2sccc2n2c(=S)[nH]nc12
(45) N/C(=N\O)c1ccsc1
(46) COC(CNC(=O)CN1C(=O)/C(=C/c2ccccc2F)Oc2ccccc21)OC
(47) COC(=O)/C(=C/c1ccc(OC(F)(F)F)cc1)NC(=O)c1ccccc1
(48) N#CC1=C(N)OC2=C(C(=O)CCC2)C1c1ccoc1 (stereo not given)

Assay by compound,41,42,43,44,45,46,47,48
GIV-Gai inh,107,106,x,106,x,97,x,105
Sa growth inh,x,x,76,x,81,101,100,87
Sa growth inh second temp,x,x,77,x,94,99,85,102
HCMV NEC inh,-16,-6,-17,-24,-12,6,-18,-18

(49) CCCNC(=O)C(C)N (stereo not given)
(50) COc1cccc(N=C2SC(C(=O)Nc3cccc(Cl)c3)CC(=O)N2C)c1 (stereo not given)
(51) CC(C)COc1ccc(CC(C#N)C(=O)O)cc1Cl (stereo not given)
(52) O=S(=O)(Nc1ccccc1N1CCOCC1)c1cccs1
(53) CCOC(=O)c1ccc(NC(=O)CCn2c(=O)c3cccn3c3cccnc32)cc1
(54) CC(=O)N1CN(Cc2cccnc2)Cc2c1sc1c2CCCC1
(55) CC(=O)N1CCCc2cc(S(=O)(=O)Nc3cc(C)[nH]n3)ccc21
(56) Cc1ccc2oc(=O)c3cc(C(=O)Nc4ccc5c(C)cc(=O)oc5c4)sc3c2c1

Assay by compound,49,50,51,52,53,54,55,56
GIV-Gai inh,x,109,98,98,101,x,93,101
Sa growth inh,94,106,114,86,108,103,127,83
Sa growth inh second temp,91,85,85,81,94,95,99,89
HCMV NEC inh,-12,-57,-13,-24,x,-7,2,x

(57) COc1cc2ccccc2cc1C(=O)Nc1ccc2nc(C)sc2c1
(58) CCOc1ccc(NC(=S)N2CC(O)CC2C(N)=O)cc1 (stereo not given)
(59) COc1ccc(C(=O)Nc2sc3c(c2C(=O)NCc2ccco2)CCCC3)cc1OC
(60) Clc1ccc(-c2nn(-c3ccccc3)cc2C=NCc2ccco2)cc1
(61) O=C1C2C3C=CC(C3)C2C(=O)N1c1ccc(Cl)cc1 (stereo not given)
(62) CC1CCN(C(=O)CSCC(=O)O)CC1
(63) CCN1C(=O)/C(=C/c2ccc(NC(C)=O)cc2)SC1=S
(64) O=C(CCc1ccccc1)NNc1ccc(F)cc1

Assay by compound,57,58,59,60,61,62,63,64
GIV-Gai inh,98,x,95,x,98,105,x,109
Sa growth inh,x,88,96,102,108,89,114,108
Sa growth inh second temp,x,89,99,94,90,112,90,102
HCMV NEC inh,-12,-7,-7,-30,-16,23,-36,-5

(65) CCN(CC)Cc1c(O)ccc2occ(C(=O)c3ccccc3)c12
(66) O=S(=O)(/N=C(/Nc1cccc(O)c1)c1ccccc1)c1ccccc1
(67) CCC(=O)N1c2ccccc2CC1C(=O)NCc1ccc(OC(C)C)cc1 (stereo not given)
(68) CC(C)(C)Sc1cc(C(=O)O)sc1C(=O)O
(69) COc1cccc(-c2nc(CSc3nc4ccccc4n4c(C(C)C)nnc34)c(C)o2)c1OC
(70) Cn1c(=O)n(CCc2ccccc2)c(=O)c2c1nc1n2CCN1c1ccc(Cl)cc1
(71) O=C(CSc1nc2ccccc2[nH]1)c1cccs1
(72) CCc1ccc(NC(=O)Cn2ncc3ccccc32)cc1

Assay by compound,65,66,67,68,69,70,71,72
GIV-Gai inh,100,106,100,98,100,101,106,105
Sa growth inh,99,110,105,110,x,121,89,124
Sa growth inh second temp,101,84,100,94,x,94,73,83
HCMV NEC inh,-24,3,x,-11,-27,x,-9,x

Sorted by molar mass (rising): part of the list above
(49) CCCNC(=O)C(C)N (stereo not given)
(40) CC(C)Oc1cc(N)c(Cl)cc1Cl
(18) COc1cccc(CNCC(C)O)c1OC (stereo not given)
(68) CC(C)(C)Sc1cc(C(=O)O)sc1C(=O)O
(71) O=C(CSc1nc2ccccc2[nH]1)c1cccs1
(72) CCc1ccc(NC(=O)Cn2ncc3ccccc32)cc1
(44) CCCCn1c(=O)c2sccc2n2c(=S)[nH]nc12
(65) CCN(CC)Cc1c(O)ccc2occ(C(=O)c3ccccc3)c12
(54) CC(=O)N1CN(Cc2cccnc2)Cc2c1sc1c2CCCC1
(47) COC(=O)/C(=C/c1ccc(OC(F)(F)F)cc1)NC(=O)c1ccccc1

Assay by compound,49,40,18,68,71,72,44,65,54,47
GIV-Gai inh,x,104,x,98,106,105,106,100,x,x
Sa growth inh,94,x,106,110,89,124,x,99,103,100
Sa growth inh second temp,91,x,93,94,73,83,x,101,95,85
HCMV NEC inh,-12,0,-4,-11,-9,x,-24,-24,-7,-18

(67) CCC(=O)N1c2ccccc2CC1C(=O)NCc1ccc(OC(C)C)cc1 (stereo not given)
(39) Nc1c(C(=O)Nc2ccccc2C(F)(F)F)sc2[nH]c(=O)c(C(=O)O)cc12
(50) COc1cccc(N=C2SC(C(=O)Nc3cccc(Cl)c3)CC(=O)N2C)c1 (stereo not given)
(24) Cc1cccc(N2CCN(S(=O)(=O)c3ccc4c(c3)CCCN4C(=O)C3CCC3)CC2)c1C

Assay by compound,67,39,50,24
GIV-Gai inh,100,105,109,106
Sa growth inh,105,97,106,111
Sa growth inh second temp,100,94,85,96
HCMV NEC inh,x,-50,-57,x

Further entries
(73) Cc1cccn2c(=O)cc(COc3cccc(NC(=O)COc4ccc(F)cc4)c3)nc12
(74) CCCN(CCC)C1=C(C(=O)c2ccccc2)N(C)S(=O)(=O)c2ccccc21
(75) CC1CN(c2ccc(F)cc2)c2nc3c(c(=O)n(CC(=O)O)c(=O)n3C)n2C1 (stereo not given)
(76) O=C(CSc1ncnc2nc(N3CCSCC3)sc12)Nc1ccc2c(c1)CCC2
(77) O=C(O)c1cccnc1N1CCOCC1
(78) C[C@@]12CCC3[C@@](CC[C@@H]4[C@](C)(C(=O)O)CCC[C@@]34C)(C[C@H]1O)C2 (stereo not given in full)
(79) O=C(NCCN1CCCCC1)c1ccc(Cn2c(SCc3cccc(F)c3)nc3cccnc32)cc1
(80) CCN(CC)S(=O)(=O)c1ccc2nc(Cl)cnc2c1

Assay by compound,73,74,75,76,77,78,79,80
GIV-Gai inh,99,106,99,111,101,102,102,110
Sa growth inh,142,74,x,x,94,106,103,x
Sa growth inh second temp,111,54,x,x,89,98,82,x
HCMV NEC inh,x,x,-6,-8,-34,-6,-32,-101

(81) CCOc1nc(C)nc2c1sc(=S)n2C
(82) C=C(C)c1cccc(C(C)(C)NC(=O)NC2CC2)c1
(83) COc1ccc(-c2noc(COc3cc(C)c(Cl)c(C)c3)n2)cc1OC
(84) O=C(CSCc1cc(=O)n2c3c(sc2n1)CCCC3)NCc1ccc2c(c1)OCO2
(85) Cc1nn(-c2ccccc2)c2[nH]c(=O)c(CNc3ccccc3)cc12
(86) N#C/C(=C\c1ccc(N2CCCC2)o1)c1ccccc1
(87) CC(C)c1cnc2c(c1SCc1cccc(C(F)(F)F)c1)c(=O)n(C)c(=O)n2C
(88) Cc1ccc(N=Cc2c(O)c3ccccc3n(C)c2=O)cc1

Assay by compound,81,82,83,84,85,86,87,88
GIV-Gai inh,x,x,103,x,99,-49*,102,x
Sa growth inh,102,100,133,103,108,77,85,88
Sa growth inh second temp,85,94,105,95,65,55,89,89
HCMV NEC inh,-5,-31,-16,-24,0,-19,x,-17
